High-throughput results: PubChem BioAssay, Broad Institute
NOMO-1 viab: NOMO-1 AML cell viability reduction, primary screen, STK33 inhibitor project, CellTiter-Glo luminescence; AID 2330, 2010; 37,000 tested, 7.5% active; inhibition, % (test concentration not listed); NOMO-1 AML viability, 72 h;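 active = most replicates above 80%; inconclusive = exactly half above 80%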;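 note: wells of about 30 µL received 25 nL stock; 0% = median of vehicle wells and 100% = reference inhibitor level; the first replicate is given; inactives centre near 10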
Starred values were filed as active, the others as inactive; ? = inconclusive.

Compound	NOMO-1 viab
Cc1ccc2nc(-c3ccc(NC(=O)CN4CCN(C(=O)C5CCCO5)CC4)cc3)sc2c1 (configuration not stated)	30.0
O=C(c1ccccc1)N1N=C(c2ccccc2)CC1c1ccc2nccnc2c1 (configuration not stated)	28.9
C[C@@H]1CN([C@@H](C)CO)C(=O)c2cccc(NC(=O)CCCCCC(=O)Nc3ccccc3N)c2O[C@@H]1CN(C)S(C)(=O)=O	34.9
COc1ccc(C(=O)CSc2n[nH]c(-c3ccc(C)cc3)n2)cc1	14.1
C[C@@H]1CN([C@@H](C)CO)C(=O)Cc2cc(N(C)C)ccc2O[C@@H]1CN(C)Cc1ccc(-c2ccccc2)cc1	74.0
C[C@@H]1CN([C@H](C)CO)C(=O)Cc2cc(NC(=O)Nc3ccc(C(F)(F)F)cc3)ccc2O[C@@H]1CN(C)C(=O)Nc1ccccc1	39.3
Cc1ccc2c(C)nc(Nc3nc(CSc4nnc(C)s4)cc(=O)[nH]3)nc2c1	37.5
Cc1ccc(S(=O)(=O)Nc2ccc3c(c2)C(=O)N([C@H](C)CO)C[C@H](C)[C@H](CN(C)CC2CCCCC2)O3)cc1	-4.0
C[C@@H]1CN([C@H](C)CO)C(=O)c2cccc(NC(=O)C3CC3)c2O[C@H]1CN(C)Cc1ccccc1	72.1
COc1ccc(S(=O)(=O)N(C)C[C@@H]2Oc3c(NC(=O)Nc4ccc(F)cc4)cccc3C(=O)N([C@@H](C)CO)C[C@@H]2C)cc1	33.3
C[C@H]1CN([C@@H](C)CO)C(=O)Cc2cc(NS(C)(=O)=O)ccc2O[C@@H]1CN(C)S(=O)(=O)c1cccs1	8.9
C[C@H]1CN([C@@H](C)CO)C(=O)c2cc(NC(=O)Nc3ccc(F)cc3)ccc2O[C@H]1CN(C)Cc1ccc(C(F)(F)F)cc1	52.1
C[C@H]1CN([C@@H](C)CO)C(=O)Cc2cc(N(C)C)ccc2O[C@@H]1CN(C)Cc1ccc(C(=O)O)cc1	10.1
CC(Oc1ccc(C(=O)Nc2ccc(Cl)cc2)cc1)C(=O)Nc1ccc(Br)cc1 (configuration not stated)	136.4*
COc1ccc(S(=O)(=O)Nc2ccc3c(c2)CC(=O)N([C@@H](C)CO)C[C@H](C)[C@@H](CN(C)C(=O)NC(C)C)O3)cc1	-24.8
C[C@@H]1CN([C@@H](C)CO)C(=O)c2cccc(NC(=O)C3CC3)c2O[C@H]1CN(C)S(=O)(=O)c1cn(C)cn1	-9.0
Cn1c(=O)c2c(nc(SCC(=O)Nc3ccc(N4CCOCC4)c(Cl)c3)n2C)n(C)c1=O	14.0
CCC(Oc1ccccc1)C(=O)Nc1cccc(NC(C)=O)c1 (configuration not stated)	-2.2
COc1cccc(OCC(=O)Nc2ccc(-c3nc4ccccc4o3)cc2)c1	-7.7
COC(=O)c1cc(C)sc1NC(=S)Nc1ncn(Cc2ccc(F)cc2Cl)n1	109.3*
CS(=O)(=O)N(CC(=O)NC1CC2CCC1C2)c1cc(Cl)c(Cl)cc1Cl (configuration not stated)	11.6
COc1cc(NC(=O)CN(C)S(=O)(=O)c2ccc(C)cc2)c(OC)cc1Cl	8.2
Cc1noc(C)c1S(=O)(=O)Nc1ccc2c(c1)C(=O)N([C@H](C)CO)C[C@H](C)[C@H](CN(C)C(=O)Nc1cccc3ccccc13)OCCCC[C@@H](C)O2	55.5
COc1ccc(CN(C)C[C@@H]2Oc3ccc(NC(=O)Nc4ccc(F)cc4)cc3CC(=O)N([C@H](C)CO)C[C@H]2C)cc1	-6.5
C[C@H](CO)N1C[C@H](C)[C@H](CN(C)Cc2ccncc2)Oc2ccc(NC(=O)NC3CCCCC3)cc2CC1=O	12.9
Cc1noc(C)c1NC(=O)N(C)C[C@H]1Oc2ccc(NC(=O)CCCCCC(=O)Nc3ccccc3N)cc2CC(=O)N([C@@H](C)CO)C[C@H]1C	2.0
C[C@@H]1CN([C@H](C)CO)C(=O)c2cccc(NC(=O)CCCCCC(=O)Nc3ccccc3N)c2O[C@H]1CN(C)Cc1ccc(-c2ccccc2)cc1	125.7*
C[C@@H]1CN([C@@H](C)CO)C(=O)Cc2cc(NC(=O)Cc3cn(C)c4ccccc34)ccc2O[C@@H]1CN(C)C(=O)Nc1ccc(F)cc1	6.0
Cc1noc(C)c1S(=O)(=O)Nc1ccc2c(c1)CC(=O)N([C@@H](C)CO)C[C@@H](C)[C@@H](CN(C)C(=O)Nc1ccc(C(F)(F)F)cc1)O2	14.7
Cc1ccc(S(=O)(=O)N(C)C[C@H]2Oc3ccc(NC(=O)c4ccncc4)cc3C(=O)N([C@H](C)CO)C[C@@H]2C)cc1	37.8
CC(C)NC(=O)Nc1cccc2c1O[C@@H](CN(C)Cc1ccc(-c3ccccc3)cc1)[C@@H](C)CN([C@@H](C)CO)C2=O	19.7
COc1ccc(S(=O)(=O)N(C)C[C@@H]2Oc3ccc(NC(=O)NC(C)C)cc3C(=O)N([C@H](C)CO)C[C@@H]2C)cc1	5.2
COc1ccc(S(=O)(=O)Nc2ccc3c(c2)CC(=O)N([C@@H](C)CO)C[C@H](C)[C@@H](CN(C)S(=O)(=O)c2c(C)noc2C)O3)cc1	6.8
C=CCNC(=O)c1c(NC(=O)C2COc3ccccc3O2)sc2c1CCCC2 (configuration not stated)	73.7
O=C1c2cccc3cccc(c23)C(=O)N1CCc1cnc[nH]1	-22.0
C[C@@H]1CN([C@H](C)CO)C(=O)c2cccc(NC(=O)Nc3ccc(C(F)(F)F)cc3)c2O[C@@H]1CN(C)C(=O)NC1CCCCC1	117.1*
S=C(NCC1CC1)Nc1ccc2[nH]ccc2c1	-6.0
COc1ccc(NC(=O)Nc2ccc3c(c2)CC(=O)N([C@H](C)CO)C[C@H](C)[C@H](CN(C)Cc2ccccc2)O3)cc1	31.7
CCN(CC)S(=O)(=O)c1cccc(C(=O)O)c1	12.0
C[C@H]1CN([C@@H](C)CO)C(=O)c2cccc(NC(=O)CCCCCC(=O)Nc3ccccc3N)c2O[C@H]1CN(C)Cc1ccc(C(F)(F)F)cc1	99.7*
C[C@@H]1CN([C@@H](C)CO)C(=O)c2cccc(NC(=O)C3CCCCC3)c2O[C@H]1CN(C)Cc1ccc(Oc2ccccc2)cc1	119.6*
CC(=O)c1cccc(NC(=O)CN(C)S(=O)(=O)c2ccccc2)c1	5.5
Cc1cc(NC(=O)CSc2nnc(-c3ccccc3)n2-c2ccc(F)cc2)ccc1Br	4.7
CNC[C@H]1Oc2ccc(NS(C)(=O)=O)cc2C(=O)N([C@@H](C)CO)C[C@@H]1C	2.4
CS(=O)(=O)N(CC(=O)Nc1ccccc1)Cc1ccc(Cl)cc1	-19.6
C[C@H]1CN([C@@H](C)CO)C(=O)c2cc(NC(=O)Nc3ccc(C(F)(F)F)cc3)ccc2O[C@@H]1CN(C)Cc1ccc(C(=O)Nc2ccccc2N)cc1	?
Cc1cc(N(CC(=O)NC2CCCCCC2)S(C)(=O)=O)ccc1Br	32.0
COc1ccc(C(=O)NCCn2cc(SCC(=O)Nc3ccccc3)c3ccccc32)cc1	28.8
C[C@@H]1CN([C@H](C)CO)C(=O)c2cccc(NC(=O)C3CCOCC3)c2O[C@@H]1CN(C)Cc1ccc(C(=O)Nc2ccccc2N)cc1	107.2*
COc1ccc(-c2cc(C(F)(F)F)nc(SCC(=O)N(C)c3ccccc3)n2)cc1OC	49.3
C[C@H](CO)N1C[C@H](C)[C@H](CN(C)C(=O)Nc2ccc3c(c2)OCO3)Oc2ccc(NC(=O)Cc3ccccc3)cc2C1=O	12.9
COc1ccc(C)cc1S(=O)(=O)N(C)CC(=O)Nc1cccc([N+](=O)[O-])c1	16.3
S=c1nc(-c2ccco2)n(Cc2ccccc2)c(=S)n1C(=NCc1ccccc1)c1ccco1	8.3
O=C(Nc1ccc(S(=O)(=O)Nc2ccccn2)cc1)c1cc2ccccc2oc1=O	15.4
CC(C)NC(=O)N(C)C[C@@H]1Oc2ccc(NC(=O)Cn3cnnn3)cc2CC(=O)N([C@@H](C)CO)C[C@@H]1C	-11.3
COc1ccc(NC(=O)Nc2cccc3c2O[C@H](CN(C)CC2CCCCC2)[C@@H](C)CN([C@@H](C)CO)C3=O)cc1	69.1

Grouped by structure: the compounds so far containing a COOH group
Compound	NOMO-1 viab
C[C@H]1CN([C@@H](C)CO)C(=O)Cc2cc(N(C)C)ccc2O[C@@H]1CN(C)Cc1ccc(C(=O)O)cc1	10.1
CCN(CC)S(=O)(=O)c1cccc(C(=O)O)c1	12.0

(more compounds)
Compound	NOMO-1 viab
COc1ccc(NC(=O)N(C)C[C@H]2Oc3ccc(NC(=O)CCC(F)(F)F)cc3C(=O)N([C@H](C)CO)C[C@H]2C)cc1	23.7
CNC(=O)c1ccc(Oc2ccc(C(=O)NC)cc2)cc1	15.9
Cc1ccc(S(=O)(=O)N(C)C[C@@H]2Oc3ccc(NC(=O)CCC(F)(F)F)cc3CC(=O)N([C@H](C)CO)C[C@@H]2C)cc1	?
CCn1c(SCC(=O)Nc2ccccc2OC)nnc1-c1c[nH]c2ccccc12	-24.2
Cc1cccc(NC(=O)c2ccc(OCC(=O)Nc3ccccc3)cc2)c1C	24.9
C[C@@H]1CN([C@H](C)CO)C(=O)Cc2cc(NS(=O)(=O)c3ccc(Cl)cc3)ccc2O[C@H]1CN(C)C(=O)Nc1ccccc1	-14.0
COc1ccc(S(=O)(=O)N(C)C[C@H]2Oc3c(NC(=O)C4CCCCC4)cccc3C(=O)N([C@@H](C)CO)C[C@@H]2C)cc1	-10.2
Cc1ccc(-c2nnc3c4ccccc4c(C)nn23)cc1S(=O)(=O)N(C)CCO	44.4
CNC[C@@H]1Oc2c(NC(=O)Nc3ccccc3)cccc2C(=O)N([C@@H](C)CO)C[C@H]1C	1.5
C[C@H]1CN([C@@H](C)CO)C(=O)c2cc(NS(=O)(=O)c3ccc(Cl)cc3)ccc2O[C@@H]1CN(C)C(=O)NC1CCCCC1	16.4
Cc1cc(Cl)ccc1OCC(O)CN1CCC(CN2C(=O)c3cccc4cccc(c34)C2=O)CC1 (configuration not stated)	119.2*
C[C@H]1CN([C@@H](C)CO)C(=O)Cc2cc(NC(=O)NC3CCCCC3)ccc2O[C@H]1CN(C)Cc1ccc(C(=O)Nc2ccccc2N)cc1	138.8*
O=C(COc1ccccc1Cl)Nc1ccccc1[N+](=O)[O-]	-4.3
C[C@H]1CN([C@@H](C)CO)C(=O)c2cccc(NC(=O)Nc3ccccc3)c2O[C@H]1CN(C)Cc1ccncc1	1.7
C[C@@H]1CN([C@H](C)CO)C(=O)Cc2cc(NC(=O)Nc3cccc4ccccc34)ccc2O[C@H]1CN(C)S(=O)(=O)c1ccc(Cl)cc1	19.2
O=C(NCCCn1ccnc1)c1cnn2c(C(F)(F)F)cc(-c3ccccc3)nc12	16.0
NC(=O)CSc1ncnc2scc(-c3ccc(Cl)cc3)c12	21.3
CC(C)NC(=O)N(C)C[C@H]1Oc2c(NS(=O)(=O)c3cccs3)cccc2C(=O)N([C@H](C)CO)C[C@H]1C	-11.8
CCN1CCN(c2c(Cl)cccc2NC(=O)c2ccc(-c3ccccc3[N+](=O)[O-])o2)CC1	?
O=C1OCCC1Sc1nnc(-c2ccccc2[N+](=O)[O-])o1 (configuration not stated)	15.5
COc1ccc(C#N)cc1Br	20.3
c1ccc(-c2nc(C34CC5CC(CC(C5)C3)C4)co2)cc1	99.2*
Cc1nnc(SCC(=O)c2ccc3c(c2)OCCO3)s1	12.7
C[C@H](CO)N1C[C@H](C)[C@H](CN(C)S(=O)(=O)c2cn(C)cn2)Oc2c(NC(=O)c3cnccn3)cccc2C1=O	9.0

Sorted by molecular weight (lowest first): six of the compounds above
Compound	NOMO-1 viab
c1ccc(-c2nc(C34CC5CC(CC(C5)C3)C4)co2)cc1	99.2*
Cc1ccc(-c2nnc3c4ccccc4c(C)nn23)cc1S(=O)(=O)N(C)CCO	44.4
CS(=O)(=O)N(CC(=O)NC1CC2CCC1C2)c1cc(Cl)c(Cl)cc1Cl (configuration not stated)	11.6
CC(C)NC(=O)N(C)C[C@@H]1Oc2ccc(NC(=O)Cn3cnnn3)cc2CC(=O)N([C@@H](C)CO)C[C@@H]1C	-11.3
CC(C)NC(=O)Nc1cccc2c1O[C@@H](CN(C)Cc1ccc(-c3ccccc3)cc1)[C@@H](C)CN([C@@H](C)CO)C2=O	19.7
C[C@@H]1CN([C@H](C)CO)C(=O)c2cccc(NC(=O)Nc3ccc(C(F)(F)F)cc3)c2O[C@@H]1CN(C)C(=O)NC1CCCCC1	117.1*

Further compounds.
Compound	NOMO-1 viab
CC(C)(C)c1ccc(S(=O)(=O)NCC(=O)Nc2ccc3c(c2)OCCO3)cc1	16.6
C[C@H]1CN([C@@H](C)CO)C(=O)c2cc(NC(=O)Nc3cccc4ccccc34)ccc2O[C@@H]1CN(C)S(=O)(=O)c1cccs1	-1.9
CN(CC(=O)Nc1ccccc1-c1ccccc1)S(=O)(=O)c1cc(Cl)ccc1Cl	8.5
C=C1C(=O)OC2C3=C(C)C(=O)CC3C(C)CC(O)C12 (configuration not stated)	56.6
COc1ccc(C(C)=O)cc1CSc1nnc(-c2ccccc2O)n1-c1ccccc1	30.2
C[C@H](CO)N1C[C@H](C)[C@H](CN(C)C(=O)Nc2ccccc2)Oc2ccc(NC(=O)Nc3ccc4c(c3)OCO4)cc2CC1=O	6.6
C[C@@H]1CN([C@@H](C)CO)C(=O)c2cc(NC(=O)C3CCCCC3)ccc2O[C@@H]1CN(C)Cc1ccc(C(=O)O)cc1	10.4
Cc1noc(C)c1NC(=O)N(C)C[C@@H]1Oc2c(NC(=O)c3nc4ccccc4s3)cccc2C(=O)N([C@H](C)CO)C[C@@H]1C	11.3
C[C@H]1CN([C@@H](C)CO)C(=O)c2cccc(NS(=O)(=O)c3cn(C)cn3)c2O[C@@H]1CN(C)C(=O)Nc1cccc2ccccc12	9.9

Some of the compounds tested; count on the stated rates, not on these rows.
